Mtb H37Rv: Mycobacterium tuberculosis H37Rv growth inhibition, cell based, confirmatory dose response (AID 1949) | inhibition, % at 10 µg/mL; hits with a dose series show IC50 in µg/mL | 100,000 compounds, 1.6% hits | most inactive calls were filed without a number and no value below 0 was filed;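 active = confirmed in a dose series; inconclusive = about 50% or more but not retested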;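 also: bacteria grown 7 days with compound before Alamar blue readout; 0% = untreated bacteria and 100% = reference antibiotic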
* = called active by the depositor; i = inactive; ? = inconclusive. Not all compounds are listed; the hit share may differ from the screen's.

Start of the data: the first two records, ahead of the listing:
SMILES	Mtb H37Rv
CCOc1ccc(Br)cc1S(=O)(=O)NCc1ccc2c(c1)OCO2	i
Cc1cc(C)c(C#N)c(SCCS(=O)(=O)c2ccc(Cl)cc2)n1	3%

Main list (from the top)
SMILES	Mtb H37Rv
CCOc1ccc(Br)cc1S(=O)(=O)NCc1ccc2c(c1)OCO2	i
Cc1cc(C)c(C#N)c(SCCS(=O)(=O)c2ccc(Cl)cc2)n1	3%
Cc1ccc(C(=O)NC2(C(F)(F)F)C(=O)N(Cc3ccccn3)C3=C2C(=O)CC(C)(C)C3)cc1 (stereo unspecified)	i
O=C(CCSc1ccccc1)N1CCN(Cc2ccc3c(c2)OCO3)CC1	5%
Cc1cc(=O)oc2c(C)c(OCc3ccc(F)cc3)ccc12	7%
O=C(NCCc1ccccc1)C(=O)NCCC1CCCCC1	i
CCCCC(=O)Nc1ccc(C(=O)NC2CCCC2)cc1	11%
O=C(NC(=S)N1CCc2ccccc21)C1CCC1	i
CC1=C(C(=O)OC(C)C)C(c2cccc(O)c2)NC(=O)N1 (stereo unspecified)	i
COc1ccccc1NS(=O)(=O)c1ccc(Cl)c(C(=O)Nc2cccc(C(=O)O)c2)c1	i
COc1ccc(Oc2cn[nH]c2-c2ccc(OCc3ccc(Cl)cc3)cc2O)cc1	5%
CCNS(=O)(=O)c1ccc(NC(=S)Nc2ccc(C(=O)OCC)cc2)cc1	2%
Cc1cccc(C(C)C)c1NC(=O)c1ccco1	0%
O=C(/C=C\c1ccccc1)Nc1ccc2nn(-c3ccccc3)nc2c1	i
Oc1ccc(Nc2ncnc3ccccc23)cc1	i
O=[N+]([O-])c1ccccc1CN1CCN(Cc2cccc(Oc3ccccc3)c2)CC1	2%
CCn1c(SCC(=O)Nc2cc([N+](=O)[O-])ccc2C)nnc1C(C)NC(=O)c1ccccc1C (stereo unspecified)	i
O=[N+]([O-])c1ccc(Oc2ccc(Cl)cc2)c(C(F)(F)F)c1	i
O=C(c1ccncc1)N(Cc1ccco1)Cc1cc2ccccc2[nH]c1=O	i
CCC(Sc1nc(C)cc(=O)[nH]1)C(=O)Nc1ccc(Cl)cn1 (stereo unspecified)	i

SMILES	Mtb H37Rv
CC(c1ccccc1)N1C(=O)c2ccc(-c3nc4ccccc4c(=O)o3)cc2C1=O (stereo unspecified)	18%
Cc1cc(C)cc(C(=O)Nc2cc(C(F)(F)F)ccc2N2CCOCC2)c1	i
COc1ccc(OC)c(N(CC(=O)N2CCOCC2)S(C)(=O)=O)c1	i
CS(=O)(=O)c1ccc(N2CCCCC2)c(S(C)(=O)=O)c1	i
CCOc1ccc(NC(=O)C2CCN(C(=O)c3ccccc3)CC2)cc1	i
CCC(=O)Nc1ccc(C(=O)Nc2cc(C)on2)cc1	i
O=S1(=O)c2cccc3cccc(c23)N1Cc1c(F)cccc1Cl	1%
COC(=O)c1cccc2c1NC(c1ccc(Cl)cc1)C1CC=CC21 (stereo unspecified)	i
COC(=O)c1ccc(Cl)c(NC(=O)CN(c2ccc(F)cc2)S(=O)(=O)c2ccc3c(c2)OCCO3)c1	7%
FC(F)(F)c1ccccc1NC(=S)N1CCC2(CC1)OCCO2	i
CSc1ccccc1NC(=O)Cn1c(-c2nonc2N)nc2ccccc21	1%
Cc1ccc(NS(=O)(=O)c2cc(S(=O)(=O)c3ccc(Cl)cc3)ccc2C)cc1	i
COC(=O)C1=CN(C2CCCCC2)C=C(C(=O)OC)C1c1ccc(Br)cc1	4%
CCSc1nc2sc3c(c2c(=O)n1-c1ccc(C)cc1)CCCCC3	i
CC(=O)Nc1ccc(Br)cc1C(=O)OCc1ccc(Cl)cc1Cl	0%
COc1cc(NS(=O)(=O)c2cc(Cl)ccc2Cl)c(OC)cc1NC(=O)c1ccccc1	i
NC(=O)C1CCN(C(=S)NC2CCCCC2)CC1	2%
COc1ccccc1C(=O)Oc1ccc2oc(C)c(C(=O)OC(C)C)c2c1	4%
O=C(Nc1nc2c(s1)CCCC2)c1cc2ccccc2o1	6%
CCOC(=O)C1=C(C)NC(=O)NC1c1ccc(OC(=O)c2ccco2)c(OC)c1 (stereo unspecified)	i

SMILES	Mtb H37Rv
CC(C)(C)C1CCC(=O)C(C2(O)C(=O)Nc3ccccc32)C1 (stereo unspecified)	i
Cc1ccc(S(=O)(=O)N2CCN(c3cccc(C(F)(F)F)c3)CC2)c(C)c1C	10%
COc1ccccc1Oc1coc2cc(OC(=O)N3CCOCC3)ccc2c1=O	i
COc1ccc(CCNCc2ccccc2C)cc1OC	i
Cc1ccc(/C(N)=N/OC(=O)CSc2ccccc2)cc1	1%
COc1ccccc1NC(=O)CSc1nnc(NC(=O)c2cccc(C)c2)s1	45%
COc1ccc(CCNS(=O)(=O)c2ccc(SC)cc2)cc1OC	i
Cn1nnc(NC(=S)NC(=O)c2cccc(OCc3ccccc3)c2)n1	i
CC(C)CC(=O)Nc1nnc(Cc2ccc(Cl)cc2Cl)s1	i
COc1cc(Br)c(S(=O)(=O)N2CCN(c3ccc(C)c(C)c3)CC2)cc1OC	i
CCOc1ccc(NS(=O)(=O)c2ccc(NS(=O)(=O)c3ccc(OCC)cc3)cc2)cc1	i
CSc1ccc(S(=O)(=O)NCc2ccc(Cl)cc2)cc1	i
COc1ccc(C(=O)NC2C3CC4CC(C3)CC2C4)cc1Cl (stereo unspecified)	i
Cc1onc(-c2c(Cl)cccc2Cl)c1C(=O)NCc1ccc(F)cc1	1%
O=C(CSc1nc2ccccc2c(=O)n1Cc1ccccc1)NC1CCCCC1	2%
CCOC(=O)CCc1c(C)c2cc(Cl)c(OCC=C(C)C)cc2oc1=O	i
CCC1CCc2c(sc(NC(=O)Cc3ccc(Cl)cc3)c2C(N)=O)C1 (stereo unspecified)	i
Cc1cc(Cl)c(OCCN(C)C)c(Br)c1	i
COc1ccc(NC(=O)CN2CCN(S(=O)(=O)N3CCCCCC3)CC2)cc1	i
CCOc1ccc(-c2cn[nH]c2N)cc1	i

SMILES	Mtb H37Rv
CCc1ccc(OC2=NS(=O)(=O)c3ccccc32)cc1	0%
CC(=O)Nc1ccc(N2C(=O)CC(N3CCCCCC3)C2=O)cc1 (stereo unspecified)	i
Cc1ccc(OCC(=O)Nc2c(C)cccc2C(C)C)c(C(C)(C)C)c1	2%
C=CCSc1nc2c(c(=O)n(C)c(=O)n2C)n1CC=C	i
O=C(Nc1cccc(Cl)c1)c1ccc2nccnc2c1	i
C/C=C/c1ccc(OCCOc2ccccc2C(C)=O)c(OC)c1	1%
COc1cc(CNCc2ccccn2)ccc1OCC(=O)NC1CCCCC1	i
CCC(C)NCCOCCOc1ccc(Br)cc1Cl (stereo unspecified)	i
Cc1c(Cl)cccc1NC(=O)Cn1cnc2sc(C(=O)Nc3ccccc3)c(C)c2c1=O	i
C=CCn1c(SCC(=O)Nc2ccc(Br)cc2)nc2sc(C)cc2c1=O	i
CCOC(=O)c1cnc2c(C)cc(Cl)cc2c1Nc1ccc(C(=O)O)cc1	i
CC(C)c1ccc(C(=O)N2CCN(c3ccc([N+](=O)[O-])c(NCCc4ccccc4)c3)CC2)cc1	i
COc1ccc(-c2nn(-c3ccccc3)cc2C(=O)Nc2ccccc2)cc1OC	i
O=C(Nc1ccc(Cl)cc1C(=O)N1CCCCC1)c1ccc(Cl)cc1Cl	i
CCOC(=O)c1c(NC(=O)c2cc3nc(-c4ccco4)cc(C(F)(F)F)n3n2)sc2c1CCC2	i
O=C(CC1CCCCC1)Nc1ccc(OCc2ccccc2)cc1	i
Cc1cc2ncn(CCCOc3ccccc3C)c2cc1C	4.6µg/mL*
Cc1ccc(S(=O)(=O)N(C)c2ccccc2C(=O)Nc2ccc(S(=O)(=O)N3CCCCCC3)cc2)cc1	2%
O=c1oc(-c2ccccc2Cl)nc2sc3c(c12)CCC3	i
O=C(O)C1CCCCC1C(=O)NCCC(c1ccccc1)c1ccccc1 (stereo unspecified)	i

SMILES	Mtb H37Rv
COCCNS(=O)(=O)c1cc(F)ccc1OC	i
COc1cc(OC)cc(-c2nnc(SCC(=O)Nc3ccc(Cl)cc3)n2-c2ccccc2)c1	i
O=C(Nc1ccc(-c2cnc3ccccc3n2)cc1)c1ccc(Cl)cc1	i
CCCC1CCc2c(sc(NC(=O)c3cccc(F)c3)c2C(N)=O)C1 (stereo unspecified)	i
Cc1cccc(-n2c(-c3ccco3)nc3ccccc3c2=O)c1C	4%
COc1cc(-c2nnc(SCC(=O)c3ccccc3)n2C)cc(OC)c1OC	i
COCCNC1CC(=O)N(c2ccccc2)C1=O (stereo unspecified)	i
CNCc1cc(Br)c(OC)c(OC)c1	i
CCC(c1nc2ccccc2c(=O)n1-c1nc2ccccc2s1)N1C(=O)c2ccccc2C1=O (stereo unspecified)	i
CCN1CCN(C(=S)Nc2cccc(F)c2)CC1	i
CCOC(=O)c1cnc2c(C(F)(F)F)cccc2c1NCc1ccco1	i
COc1cc(C=O)cc(Br)c1OCC(=O)O	i
C=CCc1ccccc1OCCNCCOC	i
C/C(=N\N1CCN(C2c3ccccc3-c3ccccc32)CC1)c1ccc(O)cc1	i
COC(=O)C1=C(C)Nc2ncnn2C1c1cc(Br)c(O)c(OC)c1 (stereo unspecified)	i
CCOc1ccc(C(=O)NC(C)(C)C)cc1	1%
C=CCNC(=O)CN(Cc1cccc(Cl)c1)S(=O)(=O)c1ccc(Cl)cc1	1%
O=[N+]([O-])/C=C/c1cccn1-c1ccc(Cl)cc1	9.7µg/mL*
Cn1nnc2cc(NC(=O)Nc3ccc(N4CCOCC4)cc3)ccc21	i
CCCCc1ccc(NC(=O)Cc2nn(C)c(=O)c3ccccc23)cc1	1%

Four entries from above, as labelled records:
> C=CCNC(=O)CN(Cc1cccc(Cl)c1)S(=O)(=O)c1ccc(Cl)cc1
  Mtb H37Rv = 1%
> O=[N+]([O-])/C=C/c1cccn1-c1ccc(Cl)cc1
  Mtb H37Rv = 9.7µg/mL*
> Cn1nnc2cc(NC(=O)Nc3ccc(N4CCOCC4)cc3)ccc21
  Mtb H37Rv = i
> CCCCc1ccc(NC(=O)Cc2nn(C)c(=O)c3ccccc23)cc1
  Mtb H37Rv = 1%

(more compounds)
SMILES	Mtb H37Rv
COc1cccc(OCC(=O)Nc2ccc(Sc3ccc([N+](=O)[O-])cc3)cc2)c1	1%
CCCCOc1ccc(C(=O)Nc2nnc(SCc3ccccc3Cl)s2)cc1	i
O=C(CSc1nc(-c2cccs2)cc(C(F)(F)F)n1)NCCCN1CCOCC1	i
CCC(C)NC(=O)COc1ccc(Br)cc1 (stereo unspecified)	i
O=C(CN1CCCCC1)Nc1sc2c(c1C(=O)Nc1ccc(Cl)cc1)CCC2	i
O=C(Nc1ccccc1F)C1COc2ccccc2O1 (stereo unspecified)	24%
Oc1cc(Oc2ccccc2)ccc1Cl	i
O=C(COc1ccc(Cl)cc1Br)Nc1ccc(S(=O)(=O)N2CCCCC2)cc1	i
Cc1cc(C(=O)Nc2sc(C)c(C)c2C#N)c(C)o1	i
O=C(c1ccc(CN2CCOCC2)cc1)N1CCN(Cc2ccc3c(c2)OCO3)CC1	i
CCOC(=O)c1ccc(NC(=O)NCc2ccc(Cl)c(Cl)c2)cc1	0%
COc1ccc(S(=O)(=O)N(C)C)cc1C	i
CCOC(=O)C(C)Oc1ccc2c(C)cc(=O)oc2c1C(=O)c1ccccc1 (stereo unspecified)	i
Cc1ccc(NC(=O)c2ccc(Cl)cc2)cc1C	14%
CC(=O)Nc1nnc(SCc2ccccc2C#N)s1	i
CNS(=O)(=O)c1cccc2cccnc12	2%
Cc1sc2nc(SCC(=O)c3c[nH]c4ccccc34)[nH]c(=O)c2c1C	i
O=C(NC(C(=O)O)c1ccccc1)NC12CC3CC(CC(C3)C1)C2 (stereo unspecified)	i
CC(C)(C)C(=O)NCCC12CC3CC(CC(C3)C1)C2	?
CCOC(=O)Cn1cc2c(c1-c1ccc(Cl)cc1)c(=O)n(C)c(=O)n2C	i

SMILES	Mtb H37Rv
O=C(CN1C(=O)c2ccccc2S1(=O)=O)Nc1ccc(Cl)cc1	i
CC1(C)CC(=O)C=C(Nc2cc([N+](=O)[O-])ccc2N)C1	i
COc1ccc(OC)c(N(CC(=O)N2CCOCC2)S(=O)(=O)c2ccc(C)cc2)c1	i
Cc1cc(C)c(C)c(C2C(C#N)=C(N)Oc3n[nH]c(C)c32)c1C (stereo unspecified)	i
CC1CCCN(CCOCCOc2ccccc2F)C1 (stereo unspecified)	i
COc1ccc(NC(=O)C2CCCCC2C(=O)O)c([N+](=O)[O-])c1 (stereo unspecified)	i
CCn1c(=N)n(Cc2ccccc2F)c2ccccc21	i
Cc1ccc(NC(=O)Cn2c(=S)[nH]c3ccccc32)cc1	i
CC(NC(=O)c1ccccc1F)c1ccc(Br)cc1 (stereo unspecified)	i
COc1ccc(S(=O)(=O)N(CC(=O)Nc2ccccc2C(C)C)c2ccc(Cl)cc2)cc1	i
Cc1ccc(OCCCN2CCCCC2)c([N+](=O)[O-])c1	i
CCOc1ccccc1N1CCN(S(=O)(=O)c2cccs2)CC1	4%
O=C1c2cccc3c(N4CCCCC4)ccc(c23)C(=O)N1c1cccc(O)c1	i
O=C(CCNS(=O)(=O)c1ccc(Cl)cc1)N1CCCCC1	i
CCOC(=O)c1c(NC(=O)c2cc(OC)cc(OC)c2)sc2c1CCC(C)C2 (stereo unspecified)	i
COc1c(C)cc(Br)cc1C(=O)NC(=S)Nc1cc(C)ccn1	i
COCCN1C(=O)c2ccc(C(=O)NCc3ccccc3)cc2C1=O	i

Source: PubChem BioAssay (Southern Research Institute)
